Vaccinia inh: Vaccinia orthopox stage-specific inhibition. Vaccinia-infected cells, mCherry/Venus stage reporter fluorescence; hits give low values; some inactives read as strong as hits. AID 1053133. activity change (mCherry), % (no concentration beside the values). 89,000 compounds, 0.01% hits;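 active means mCherry past -33% and 40 or more points under the early reporter, replicates agreeing; inconclusive means past -33% without that gap or agreement; tested in A549 cells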;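 further: scaled between vehicle wells and reference inhibitor wells; 23 nL library stock went into each well; one replicate is shown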
Vaccinia inh Venus: second read-out of Vaccinia inh, no call of its own (marks repeat the call); activity change (Venus), %; measured here: Venus reporter, other viral stage;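 negative = less Venus signal; first of two replicates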
Numbers without * were called inactive; ? = inconclusive; / = no result given.

The line under a structure holds: Vaccinia inh | Vaccinia inh Venus
C[C@@H]1CCCCO[C@H](CN(C)C(=O)c2ccccc2)[C@@H](C)CN([C@@H](C)CO)C(=O)c2cc(NC(=O)Cc3ccccc3)ccc2O1
 : -1 | -14
CCCNC(=O)Nc1ccc2c(c1)C(=O)N(C)[C@H]1CC[C@H](CC(=O)NCCCN(C)C)O[C@H]1CO2
 : -4 | 1
O=C(c1ccccn1)N1C[C@@H]2[C@H](c3ccccc31)[C@@H](CO)N2C(=O)Nc1ccccc1F
 : -1 | -8
Cc1ccc(-c2ccc([C@H]3[C@@H](CO)N4C(=O)CN(C(=O)c5ccncc5)C[C@H]34)cc2)cc1
 : -2 | 0
O=C(NC1CCCC1)N1CCCCN2[C@H](CO)[C@@H](c3ccc(-c4cncnc4)cc3)[C@@H]2C1
 : 25 | 25
Cc1cc(C(=O)Nc2cccc3c2O[C@H](CN(C)S(=O)(=O)c2ccc(Cl)cc2)[C@H](C)CN([C@@H](C)CO)C3=O)n(C)n1
 : 4 | -3
CNC[C@@H]1Oc2c(NS(=O)(=O)c3ccc(OC)cc3)cccc2C(=O)N([C@H](C)CO)C[C@H]1C
 : 3 | -1
C[C@@H]1CN([C@@H](C)CO)S(=O)(=O)c2ccc(C#CC(C)(C)O)cc2O[C@H]1CN(C)C(=O)CC1CC1
 : 2 | -5
C[C@H]1CN([C@@H](C)CO)C(=O)c2cc(C#CC(C)(C)O)cnc2O[C@@H]1CN(C)Cc1cncnc1
 : 9 | 12
COc1ccc(-c2ccc3c(c2)[C@H]2[C@H](CCN2S(=O)(=O)c2ccccc2C)[C@@H](CO)N3)cc1
 : ? | /

3 of these compounds, set out differently.
O=C(c1ccccn1)N1C[C@@H]2[C@H](c3ccccc31)[C@@H](CO)N2C(=O)Nc1ccccc1F
  Vaccinia inh = -1
  Vaccinia inh Venus = -8
C[C@@H]1CCCCO[C@H](CN(C)C(=O)c2ccccc2)[C@@H](C)CN([C@@H](C)CO)C(=O)c2cc(NC(=O)Cc3ccccc3)ccc2O1
  Vaccinia inh = -1
  Vaccinia inh Venus = -14
Cc1cc(C(=O)Nc2cccc3c2O[C@H](CN(C)S(=O)(=O)c2ccc(Cl)cc2)[C@H](C)CN([C@@H](C)CO)C3=O)n(C)n1
  Vaccinia inh = 4
  Vaccinia inh Venus = -3

Additional results
The line under a structure holds: Vaccinia inh | Vaccinia inh Venus
N#C[C@@H]1[C@@H](c2ccccc2)[C@@H](CO)N1C(=O)c1cc(Cl)cc(Cl)c1
 : 11 | -1
CCCNC(=O)N(C)C[C@@H]1[C@@H](c2ccccc2)[C@H](CO)N1C(=O)c1ccccc1
 : 12 | 5
COc1ccc(S(=O)(=O)N(C)C[C@H]2Oc3ccc(NC(=O)Cn4cnnn4)cc3CC(=O)N([C@H](C)CO)C[C@@H]2C)cc1
 : 6 | 8
C/C=C/c1ccccc1[C@H]1[C@@H](CO)N(C(=O)Nc2ccccc2)[C@H]1C#N
 : 4 | -1
Cc1cccc(S(=O)(=O)N2CC[C@@H]3[C@H](CO)Nc4ccc(C#Cc5ccc(F)cc5)cc4[C@@H]32)c1
 : -21 | -16
O=C(C[C@H]1CC[C@H]2[C@@H](COC[C@@H](O)CN2C(=O)c2ccc(F)cc2)O1)N1CCCCC1
 : 11 | 1
COc1ccccc1-c1ccc([C@H]2[C@H]3CN(C(=O)CN4CCOCC4)CCCCN3[C@H]2CO)cc1
 : 10 | -5
O=C(C[C@@H]1C=C[C@@H](NC(=O)c2cccnc2)[C@@H](CO)O1)NCc1ccc(Cl)c(Cl)c1
 : -13 | -15
NCC[C@H]1CC[C@H](NS(=O)(=O)Cc2ccccc2)[C@H](CO)O1
 : 6 | 0
COc1ccccc1C#Cc1ccc([C@@H]2[C@@H](CO)N3CCCCN(C(=O)C4CCCC4)C[C@@H]23)cc1
 : -16 | -8
C[C@H](CO)N1C[C@H](C)[C@@H](CN(C)S(=O)(=O)c2ccccc2)Oc2c(NS(=O)(=O)c3ccc(Cl)cc3)cccc2C1=O
 : -3 | -1
C[C@@H]1CN([C@@H](C)CO)C(=O)c2cccc(NS(=O)(=O)c3cccs3)c2O[C@@H]1CN(C)Cc1ccc(C(=O)Nc2ccccc2N)cc1
 : -10 | -5
CCCNC(=O)C[C@@H]1C[C@H]2c3cc(NS(C)(=O)=O)ccc3O[C@H]2[C@@H](CO)O1
 : 8 | 6
COc1ccc(NC(=O)N(C)C[C@@H]2OCc3ccccc3-c3ccccc3C(=O)N([C@H](C)CO)C[C@@H]2C)cc1
 : 33 | 20
COc1ccc(C#Cc2ccc([C@H]3[C@@H](CO)N4CCCCN(C(=O)Nc5ccc(F)cc5)C[C@@H]34)cc2)cc1
 : -26 | -23
COc1ccc(NC(=O)N(C)C[C@@H]2Oc3ccc(NC(=O)NC(C)C)cc3CC(=O)N([C@@H](C)CO)C[C@@H]2C)cc1
 : 7 | 7
C/C=C/c1ccc([C@H]2[C@H]3CN(C(=O)c4ccncc4)CC(=O)N3[C@H]2CO)cc1
 : 18 | 6
CC(=O)N(C)C[C@@H]1Oc2cc(C#CCC(C)C)ccc2S(=O)(=O)N([C@@H](C)CO)C[C@H]1C
 : -18 | -11
CCC(=O)N[C@@H]1CC[C@H](CCNC(=O)Nc2ccc(C(F)(F)F)cc2)O[C@@H]1CO
 : -3 | 9
O=C(Nc1ccccc1F)N1C[C@@H]2[C@H](c3ccccc31)[C@@H](CO)N2C(=O)c1ccccc1F
 : 12 | 7
CCC(=O)N(C)C[C@@H]1Oc2cc(-c3ccc(F)cc3)ccc2S(=O)(=O)N([C@@H](C)CO)C[C@H]1C
 : 0 | 5
C[C@H]1CN([C@@H](C)CO)C(=O)Cc2cc(NC(=O)Nc3cccc4ccccc34)ccc2O[C@H]1CN(C)S(=O)(=O)c1ccc(F)cc1
 : -13 | -5
O=C1C=CCCN1C(=O)/C=C/c1ccccc1Cl
 : -4 | -1
CCC(=O)N1[C@@H](CO)[C@@H](c2ccccc2)[C@@H]1CN(C)C(=O)c1ccccc1F
 : 6 | 8
O=C(CN1CCOCC1)N[C@H]1CC[C@H](CCNC(=O)C2CCCC2)O[C@H]1CO
 : 0 | 18
CCOC(=O)N(C)C[C@H]1OCc2ccccc2-c2c(n(C)c3ccccc23)C(=O)N([C@H](C)CO)C[C@@H]1C
 : -2 | -5
N#C[C@@H]1[C@@H](c2ccccc2)[C@H](CO)N1S(=O)(=O)c1cccc(F)c1
 : 10 | 8
COc1ccc(CN(C)C[C@@H]2Oc3ccc(NC(=O)Cc4ccccc4)cc3CC(=O)N([C@H](C)CO)C[C@H]2C)cc1
 : 12 | 6
COc1cccc(NC(=O)N(C)C[C@@H]2Oc3cc(Br)ccc3S(=O)(=O)N([C@@H](C)CO)C[C@H]2C)c1
 : -4 | 3
CN1CCN(C(=O)C[C@H]2CC[C@@H]3[C@H](COC[C@@H](O)CN3Cc3ccc4c(c3)OCO4)O2)CC1
 : 13 | 7

Overlap with the part before: 2 entries, followed by the next part.
The line under a structure holds: Vaccinia inh | Vaccinia inh Venus
COc1cccc(NC(=O)N(C)C[C@@H]2Oc3cc(Br)ccc3S(=O)(=O)N([C@@H](C)CO)C[C@H]2C)c1
 : -4 | 3
CN1CCN(C(=O)C[C@H]2CC[C@@H]3[C@H](COC[C@@H](O)CN3Cc3ccc4c(c3)OCO4)O2)CC1
 : 13 | 7
O=C(Nc1ccccc1Cl)N1C[C@@H]2[C@H](c3ccccc31)[C@@H](CO)N2Cc1ccncc1
 : -6 | -6
C[C@@H]1CN([C@@H](C)CO)C(=O)c2cc(C3=CCCC3)cnc2O[C@@H]1CN(C)C(=O)Nc1ccc(C(F)(F)F)cc1
 : ? | /
O=C(NCC1CC1)[C@H]1[C@H](CO)[C@H]2Cn3c(ccc(-c4cccc(F)c4)c3=O)[C@H]2N1CC1CCCC1
 : -30 | -15
N#C[C@H]1[C@@H](c2ccccc2C2=CCCCC2)[C@@H](CO)N1C(=O)Nc1ccccc1F
 : -20 | -15
CCC(=O)N1[C@@H](CO)[C@@H]2c3ccccc3N(C(=O)CC(F)(F)F)C[C@@H]21
 : -13 | 4
C[C@H](CO)N1C[C@H](C)[C@@H](CN(C)C(=O)Nc2ccccc2F)Oc2ncc(/C=C/c3ccccc3)cc2C1=O
 : -28 | -18
C[C@@H]1CCCCO[C@H](CN(C)C(=O)Nc2ccccc2)[C@@H](C)CN([C@@H](C)CO)C(=O)c2cc(N(C)C)ccc2O1
 : 6 | 8
CCC(=O)N1C[C@H](C)[C@@H](OC)CN(C)C(=O)c2ccc(NC(=O)c3ccccc3)cc2OC[C@@H]1C
 : 7 | 11
O=[N+]([O-])c1ccc(C(O)CC(O)CSc2nc(-c3ccccc3)c(-c3ccccc3)o2)cc1 (stereo not drawn)
 : -16 | -11
CO[C@@H]1CN(C)C(=O)c2cc(NC(=O)C3CCC3)ccc2OC[C@@H](C)N(Cc2cccnc2)C[C@H]1C
 : 5 | 13

Going on with the list.
structure,Vaccinia inh,Vaccinia inh Venus
O=C(C[C@@H]1C[C@H]2c3cc(NC(=O)NC4CCCCC4)ccc3O[C@H]2[C@@H](CO)O1)NC1CCCCC1,23,8
Cc1ccc(S(=O)(=O)N(C)C[C@@H]2Oc3ccc(NC(=O)Nc4c(C)noc4C)cc3CC(=O)N([C@H](C)CO)C[C@H]2C)cc1,9,8
C[C@H](CO)N1C[C@H](C)[C@@H](CN(C)CC2CC2)Oc2ccc(NC(=O)Cn3cnnn3)cc2CC1=O,10,19
O=C(NCc1ccncc1)[C@H]1N[C@H]2c3ccc(/C=C/c4ccccc4)c(=O)n3C[C@H]2[C@@H]1CO,6,13
C[C@H]1CN([C@@H](C)CO)C(=O)CCCn2cc(nn2)CO[C@H]1CN(C)S(=O)(=O)c1cn(C)cn1,-6,-7
Cc1noc(C)c1NC(=O)Nc1cccc2c1O[C@@H](CN(C)Cc1ccc(C(=O)O)cc1)[C@H](C)CN([C@H](C)CO)C2=O,15,9
O=C(C[C@H]1C[C@@H]2c3cc(NC(=O)C4CCC4)ccc3O[C@@H]2[C@@H](CO)O1)NCc1ccncc1,13,3
C[C@H](CO)N1C[C@H](C)[C@@H](CN(C)C)Oc2cc(C#Cc3ccccn3)ccc2S1(=O)=O,8,6
O=C(Nc1ccccc1F)N[C@@H]1CC[C@H](CCNC(=O)C2CCC2)O[C@H]1CO,0,2
CC=Cc1ccc2n(c1=O)C[C@H]1[C@H](CO)[C@@H](C(=O)NCCc3ccncc3)N(CCC(F)(F)F)[C@@H]21 (mixture of isomers),0,-8
COc1ccc(NC(=O)N(C)C[C@H]2Oc3ccc(NS(=O)(=O)c4ccc(F)cc4)cc3CC(=O)N([C@H](C)CO)C[C@H]2C)cc1,7,-1
O=S(=O)(c1ccccc1F)N1CCCCN2[C@H](C1)[C@@H](c1ccc(-c3cncnc3)cc1)[C@@H]2CO,23,16
Cc1noc(C)c1NC(=O)N(C)C[C@H]1Oc2ncc(C#CC3CC3)cc2C(=O)N([C@@H](C)CO)C[C@@H]1C,13,16
Cc1ccc(S(=O)(=O)N(C)C[C@@H]2OCCCC[C@H](C)Oc3ccc(NS(=O)(=O)c4c(C)noc4C)cc3C(=O)N([C@@H](C)CO)C[C@H]2C)cc1,?,/
CCOC(=O)[C@@H]1[C@@H]2C=C[C@]3(O2)[C@H](C(=O)NCc2ccccc2)N(CCCCCCO)C(=O)[C@@H]13,?,/
C[C@@H]1CN([C@H](C)CO)C(=O)c2cc(NC(=O)Nc3cccc4ccccc34)ccc2O[C@@H](C)CCCCO[C@H]1CN(C)Cc1ccncc1,-28,-22
O=C(c1ccccc1)N1CC(=O)N2[C@H](CO)[C@@H](c3ccc(C4=CCCC4)cc3)[C@@H]2C1,9,0
COc1ccc(S(=O)(=O)Nc2cccc3c2O[C@H](CN(C)Cc2ccc(-c4ccccc4)cc2)[C@@H](C)CN([C@@H](C)CO)C3=O)cc1,-18,-9
O=C(NCC[C@H]1CC[C@H](NC(=O)c2ccccc2F)[C@H](CO)O1)c1cnccn1,6,2
COc1cccc(NC(=O)N(C)C[C@H]2Oc3cc(-c4ccccc4F)ccc3S(=O)(=O)N([C@H](C)CO)C[C@@H]2C)c1,-33,-32
C[C@@H]1CCCCO[C@H](CN(C)S(=O)(=O)c2ccc(Cl)cc2)[C@H](C)CN([C@@H](C)CO)C(=O)c2cc(NC(=O)Nc3ccc(F)cc3)ccc2O1,-7,12
C[C@H]1CN([C@@H](C)CO)C(=O)c2cc(C3=CCCCC3)cnc2O[C@H]1CN(C)Cc1cccc(F)c1,-15,-13
C[C@H]1CN([C@@H](C)CO)C(=O)Cc2cc(NC(=O)C3CCCCC3)ccc2O[C@H]1CN(C)S(=O)(=O)c1ccccc1,5,6
COc1cccc(NC(=O)N(C)C[C@@H]2Oc3cc(C#Cc4ccncc4)ccc3S(=O)(=O)N([C@H](C)CO)C[C@@H]2C)c1,?,/
O=C(NC1CCCC1)[C@@H]1[C@@H](CO)[C@@H]2Cn3c(cccc3=O)[C@H]1N2Cc1cc(F)ccc1F,2,-2
CCN1[C@H](C(=O)NCc2ccncn2)[C@@H](CO)[C@@H]2Cn3c(ccc(-c4ccc(F)cc4)c3=O)[C@@H]21,-1,10
CCN(C[C@@H]1[C@@H](c2ccccc2)[C@H](CO)N1S(C)(=O)=O)C(=O)C1CCCC1,9,8
C[C@@H]1CN([C@H](C)CO)C(=O)Cc2cc(NS(=O)(=O)c3ccc(Cl)cc3)ccc2O[C@H]1CN(C)CC1CC1,0,-1
CNC(=O)C[C@H]1CC[C@H]2[C@H](COc3ccc(NC(=O)Nc4cccc(C)c4)cc3C(=O)N2C)O1,17,11

An excerpt, so the mix of outcomes need not match the whole.
